# Menin-MLL FL inh = menin-MLL binding inhibition, fluorescein peptide; AID 1766; FP activity change, % at 61.4 µM; 290,000 tested, under 10 active; Fluorescence polarization, fluorescein-MLL peptide displacement from menin; inconclusive = falling polarisation curve, or a change in total fluorescence; inactive = total fluorescence flat and polarisation flat or rising; no compound was filed as active; the % refers to the polarisation; negative = inhibition;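 further: % of control where 0% means no effect; inhibitors lower the polarisation; unlabelled MLL peptide was the positive control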
# gsp ag = activates gsp, the McCune-Albright syndrome mutation. gsp mutant cells, cAMP HTRF, 30 min; control for the full effect not named in the record. Potency, µM (series often up to 76.9 µM), for inactives: at the top dose activation (cAMP increase), most hits filed as activators. hit rate 0.13% among 340,000. AID 624287; active = well fitted activation curve with a large enough effect; inconclusive = small, poorly fitted or top-dose-only effect, or another doubt; inactive = no such curve, though single readings can be large or run the other way; cell line not stated here;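 further: phosphodiesterase inhibitor Ro 20-1724 added with compounds to block cAMP breakdown; potency means the concentration at half of the fitted maximal effect; nearly all actives have a fitted effect of over 60% in size; about a fifth of the inactives were tested at one dose only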
#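 Cells stably selected in G418 were plated at 2000/well, grown 16-24 hr, then given compounds in DMSO with the PDE inhibitor […] (300 uM solution added) for 30 min at 37C; cAMP was read by HTRF.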
# TRPML1 blocker = human mucolipin-1 channel inhibition | Q9GZU1 | TRPML1-inducible cells, Ca2+ dye fluorescence, FDSS; hits give low values; inhibition of EC80 agonist-evoked calcium signal | activity change, negative = inhibition, % (test concentration not listed) | hit rate 0.02% among 390,000 | AID 624415; in the data active means activity change below about -50%; inconclusive means about -30% to -50%; inactive means above about -30%;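 further: stimulus is agonist 54-4 at its EC80 concentration; on the % scale 0 is the no-effect control and ±100 the full control effect; compound concentration not given in the record; the text of the record puts the active cut at -80%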
#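 TRPML1-DL cells, Tet-induced overnight (~16 h, 37 °C) at 1,500 cells/well, were loaded with Ca8 no-wash dye plus quencher for 45-90 min at room temperature. Compounds were pinned during FDSS kinetic reading; agonist 54-4 at EC80 (4 uM final) then added.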
# ClpP mod = qHTS Assay for Activators of ClpP. purified B. subtilis ClpP, FRET peptide cleavage, 20 min. Potency, µM (titrated, usually from 57.5 µM), without a hit: at the top dose activity change, negative = active. hit rate 1.9% among 340,000. AID 651965, 2013; active = well fitted falling curve with a large enough effect; inconclusive = small, poorly fitted or top-dose-only effect; inactive = no such curve, though single readings can be large or run the other way; further: potency means the concentration at half of the fitted maximal effect; the source files actives as falling curves though it sought activators and does not explain the sign; nearly all actives have a fitted effect of over 65% in size; many hits overshoot -100%
# Target sequence (P80244 whole entry, looked up): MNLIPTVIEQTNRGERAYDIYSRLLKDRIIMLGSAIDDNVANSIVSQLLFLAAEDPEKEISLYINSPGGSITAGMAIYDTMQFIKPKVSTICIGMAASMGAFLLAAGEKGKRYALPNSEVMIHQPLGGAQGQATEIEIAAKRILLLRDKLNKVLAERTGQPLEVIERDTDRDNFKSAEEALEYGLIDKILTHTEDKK
#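 Purified B. subtilis ClpP, 10 microg/mL final in Tris/HCl pH8 with KCl, BSA, glycerol and Tween-20, cleaved an Abz/nitrotyrosine-quenched decapeptide. Fluorescence (ex 320, em 430) was read at 0 and 20 min at room temperature. Delta was normalized to 5.8 microM ADEP and DMSO/no-enzyme controls.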
# Sfp inh = Sfp phosphopantetheinyl transferase inhibition | Q9F4F7 | Biochemical Sfp PPTase activity, qHTS | Potency, µM, without a hit: max response, negative = inhibition, actives largely listed as inhibitors | hit rate 3.5% among 310,000 | AID 1490; active means well fitted inhibition curve with a large enough effect; inconclusive means small, poorly fitted or top-dose-only effect, or another doubt; inactive means no such curve, though single readings can be large or run the other way;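 further: the enzyme is Sfp with the accession as filed and its product quenches rhodamine fluorescence; potency means the concentration at half of the fitted maximal effect; 0% = enzyme reaction without inhibitor and -100% = no enzyme wells; top concentration of the series not given in the record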
#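 Sfp 15 nM + cpd, 15 min RT; start w/ rhodamine-CoA 5 uM, BHQ-2-YbbR 12.5 uM (final); 50 mM Hepes pH 7.6, 10 mM MgCl2, 0.01% NP-40, 0.01% BSA; read 525/598 nm at 0 and 30 min.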
# TRPV1 PAM = enhances activation of the human vanilloid receptor TRPV1; Q8NER1; TRPV1-expressing cells, Fluo-8 calcium influx, capsaicin EC20 potentiation; host cell line not named in the record; control for the full effect not named in the record; potentiation, % at 8.33 µM; hit rate 0.02% among 320,000; AID 540277; active means potentiation above 80%; inconclusive means 30% to 80%; inactive means below 30%; further: 0% is about no effect
# Target sequence (Q8NER1 whole entry, looked up): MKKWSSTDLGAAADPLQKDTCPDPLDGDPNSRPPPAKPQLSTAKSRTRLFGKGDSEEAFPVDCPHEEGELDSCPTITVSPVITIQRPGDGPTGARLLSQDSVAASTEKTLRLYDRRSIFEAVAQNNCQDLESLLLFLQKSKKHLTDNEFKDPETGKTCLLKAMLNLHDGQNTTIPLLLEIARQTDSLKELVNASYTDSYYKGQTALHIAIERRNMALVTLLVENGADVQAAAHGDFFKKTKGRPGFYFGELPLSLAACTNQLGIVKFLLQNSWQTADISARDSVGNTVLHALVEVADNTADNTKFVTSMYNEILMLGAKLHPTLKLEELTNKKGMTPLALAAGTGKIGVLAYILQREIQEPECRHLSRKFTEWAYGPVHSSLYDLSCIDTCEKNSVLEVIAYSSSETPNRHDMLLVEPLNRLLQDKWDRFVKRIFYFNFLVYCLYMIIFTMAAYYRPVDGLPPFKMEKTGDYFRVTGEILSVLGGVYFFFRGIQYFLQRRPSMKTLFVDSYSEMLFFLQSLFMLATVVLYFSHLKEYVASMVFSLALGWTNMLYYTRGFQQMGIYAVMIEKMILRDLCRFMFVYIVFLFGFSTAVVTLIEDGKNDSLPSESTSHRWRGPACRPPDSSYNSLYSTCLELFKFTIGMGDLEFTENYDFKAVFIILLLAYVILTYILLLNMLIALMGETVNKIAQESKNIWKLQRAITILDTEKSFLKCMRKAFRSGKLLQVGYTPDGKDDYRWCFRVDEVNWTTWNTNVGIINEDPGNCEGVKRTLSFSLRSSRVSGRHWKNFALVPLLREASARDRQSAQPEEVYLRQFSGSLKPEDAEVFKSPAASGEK
#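 Cells expressing TRPV1 were dye-loaded with Fluo-8 and read kinetically: 10 s baseline, 3 min after compound (agonist portion), then 2 min after EC20 capsaicin (allosteric enhancer portion). Calcium-bound dye fluorescence at 480/520 nm.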
# gsp antagonist = antagonists of gsp mutant (McCune-Albright syndrome). hit rate 0.4% among 340,000. Potency, µM (doses to about 76.9 µM), inactives show at the top dose activity change, negative = inhibition, actives largely listed as inhibitors. AID 624288. gsp-mutant cells, cAMP HTRF, 30 min; control for the full effect not named in the record; active = falling curve of any shape with a large fitted effect; inconclusive = falling curve, mostly with a smaller effect; inactive = flat or rising curve; cell line not stated here;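 further: intracellular cAMP measured with PDE inhibitor Ro 20-1724 present during compound exposure; potency means the concentration at half of the fitted maximal effect; on the % scale 0 is the no-effect control and ±100 the full control effect; nearly all actives have a fitted effect of over 65% in size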
#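 G418-selected cells were plated in DMEM/10% FBS for 16-24 h at 37C, then treated with compounds plus the PDE inhibitor […] (300 uM solution added) for 30 min at 37C. Intracellular cAMP was measured by HTRF after 30 min lysis at room temperature.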
# Numbers without * were called inactive; ? = inconclusive; · = not tested or not shown; [ ] = remark or other dose.
SMILES,Menin-MLL FL inh,gsp ag,TRPML1 blocker,ClpP mod,Sfp inh,TRPV1 PAM,gsp antagonist
CCN1C(=O)S/C(=C/c2ccc(Sc3nc4ccccc4[nH]3)o2)C1=O,?,-1.1%,-9.9,0.1%,12.4%,-16.6,?
COCCN(C(=O)c1ccccc1OC)c1nnc(C)s1,-3.3,-37.2%,-17.0,3.0%,17.9%,-0.8,21.2%
CCc1ccccc1N1CCN(S(=O)(=O)c2ccc(F)c(C)c2)CC1,-0.2,-50.8%[inhibitor],-2.8,-1.0%,-0.9%,1.6,3.6%
CC1CCN(C(=O)COC(=O)C23CC4CC(CC(O)(C4)C2)C3)CC1,·,8.2%,-1.8,0.9%,·,-3.0,14.5%
COc1ccc(C(=O)Nc2ccccc2C(=O)N/N=C/c2ccncc2)cc1OC,-3.0,-12.4%[15.4 µM],-3.3,·,5.4%,-8.5,-9.5%
COc1cc(OC)cc(C(=O)NC(C(=O)Nc2ccc3c(c2)CCC3)C(C)C)c1 (stereo not drawn),·,-13.1%,-0.1,-0.4%,·,12.7,3.5%
COc1ccc(C)cc1-n1nnnc1SCC1CCCO1 (stereo not drawn),0.3,-34.3%[inhibitor],4.5,-21.9%,-6.1%,-18.9,-9.0%
O=C(NCCc1ccc(Cl)cc1Cl)c1cc([N+](=O)[O-])c[nH]c1=O,-2.5,-28.0%[15.4 µM],16.4,·,-10.4%,0.4,?
Cc1ccc(NC(=O)CSc2n[nH]c(N)n2)cc1S(=O)(=O)N1CCOCC1,0.2,?,-22.2,-1.8%,9.6%,4.4,-7.7%
Cc1ccc(S(=O)(=O)NNC(=O)Nc2ccc(Cl)cc2)cc1,4.7,-34.0%[inhibitor],-6.3,1.7%,22.2%,-6.9,2.7%
Cc1cc2nc(-c3ccccn3)c(-c3ccccn3)nc2cc1C,0.8,·,·,·,-29.7%,-14.4,·
CC1(C)CC(=O)C(C2C3=C(CC(C)(C)CC3=O)Oc3ccccc32)C(=O)C1 (stereo not drawn),5.2,-22.9%,-5.1,·,5.3%,2.6,-1.7%

# Brought forward from above: two entries, then new ones.
SMILES,Menin-MLL FL inh,gsp ag,TRPML1 blocker,ClpP mod,Sfp inh,TRPV1 PAM,gsp antagonist
Cc1cc2nc(-c3ccccn3)c(-c3ccccn3)nc2cc1C,0.8,·,·,·,-29.7%,-14.4,·
CC1(C)CC(=O)C(C2C3=C(CC(C)(C)CC3=O)Oc3ccccc32)C(=O)C1 (stereo not drawn),5.2,-22.9%,-5.1,·,5.3%,2.6,-1.7%
Nc1cc(OC(=O)c2c(F)cccc2Cl)nn1S(=O)(=O)c1ccccc1,-0.5,4.9%[15.4 µM],-2.3,·,4.2%,10.8,-8.8%
COc1cccc(NC(=O)CN(C)C(=O)c2cc(S(=O)(=O)N3CCCCC3)ccc2Cl)c1,·,3.7%,7.8,1.2%,·,7.3,-0.8%
CCCNC(=O)c1ccc2c(=O)n3c(-c4ccc(C)cc4)csc3nc2c1,1.9,·,20.4,-20.1%,?,-10.6,?
Cn1cccc1CC(=O)N/N=C/c1ccc([N+](=O)[O-])cc1,3.0,3.4%[15.4 µM],-1.3,0.2%,-5.7%,-0.1,-4.8%
CC(=O)n1c2c(c3ccccc31)OC(N)=C(C#N)C2c1ccc(C(C)C)cc1 (stereo not drawn),?,-12.1%,17.6,12.0%,-1.0%,-22.5,-15.6%
Cc1cc(/C(=N/O)C(C)(C)NO)ccc1Cl,0.1,-12.8%,-0.4,0.1%,-9.9%,-5.5,2.1%
Fc1ccc(/C=N/NC(=S)Nc2ccc(Cl)cc2)cc1F,2.0,-4.8%,4.2,-2.1%,20.8%,-8.5,3.9%
Cc1nc(-c2ccc(NC(=O)c3cccs3)cc2)cs1,6.0,-10.5%,-9.8,?,7.2%,-17.8,9.0%
Cc1ccc(S(=O)(=O)N(C)C)cc1NC(=O)C(C)NC(C)c1cccs1 (stereo not drawn),-5.9,-17.9%[15.4 µM],11.4,·,-6.3%,11.8,1.1%
O=C(CSc1nc2c(c(=O)[nH]1)CCC2)Nc1cccc(Cl)c1,-0.3,23.5%,6.4,0.1%,37.1%[activator],-2.2,?
O=C(NCc1ccncc1)C(=O)NCC1OCCN1S(=O)(=O)c1ccccc1 (stereo not drawn),·,-23.9%,-2.3,-3.8%,·,·,·
COc1cc(C(=O)NCCc2ccc(S(N)(=O)=O)cc2)ccc1OCc1c(C)noc1C,·,?,-0.7,-1.2%,·,-0.9,10.6%

# Complete entries, looked up by structure. Order of values: Menin-MLL FL inh	gsp ag	TRPML1 blocker	ClpP mod	Sfp inh	TRPV1 PAM	gsp antagonist
# Shown for `COc1cccc(NC(=O)CN(C)C(=O)c2cc(S(=O)(=O)N3CCCCC3)ccc2Cl)c1` → ·	3.7%	7.8	1.2%	·	7.3	-0.8%
# Shown for `CCN1C(=O)S/C(=C/c2ccc(Sc3nc4ccccc4[nH]3)o2)C1=O` → ?	-1.1%	-9.9	0.1%	12.4%	-16.6	?

# Continuation:
SMILES,Menin-MLL FL inh,gsp ag,TRPML1 blocker,ClpP mod,Sfp inh,TRPV1 PAM,gsp antagonist
Cc1ccc(C(=O)NCC(=O)N2CCc3ccccc3C2)cc1C,-0.6,4.7%,14.6,·,1.3%,-5.6,-5.2%
O=C(COC(=O)Cc1c[nH]c2ccccc12)Nc1ccccc1,3.3,26.5%,14.9,-0.4%,8.9%,18.3,-0.3%
COc1ccc(NCc2nnc(SCc3ccc(Cl)cc3)n2-c2ccccc2)cc1,3.8,-19.5%,19.4,-0.6%,-12.6%,-10.4,-12.2%
O=C(CN(c1ccc(F)cc1)S(=O)(=O)c1ccc2c(c1)OCCO2)N1CCOCC1,0.9,-42.9%[inhibitor],-7.1,1.5%,22.2%,?,11.5%
O=C(C1CC=CCC1)N1CCCCCC1 (stereo not drawn),·,19.7%,6.2,0.1%,·,·,·
O=C1c2cccc3c(N4CCOCC4)c([N+](=O)[O-])cc(c23)C(=O)N1c1cccc2ccccc12,2.1,38.2%,34.8,-0.8%,-17.3%,-4.0,-7.7%
CCOc1cccc(N2C(=O)CC(N3CCC(C(N)=O)(N4CCCCC4)CC3)C2=O)c1 (stereo not drawn),3.4,2.3%,-6.6,-0.8%,5.4%,-3.1,11.4%
CCc1ccc(CCC(=O)Nc2ccc(Br)cc2)o1,-1.2,-3.1%,-2.0,-2.4%,8.6%,7.4,-6.6%
CC(=O)Nc1ccccc1-c1nc2ccc(C(=O)N3CCN(c4cc(C)ccc4C)CC3)cc2[nH]c1=O,0.0,-22.2%,-2.2,-6.7%,-6.5%,3.5,-15.2%
CC12CN3CC(C)(CN(C1)C3c1ccc3c(c1)OCO3)C2 (stereo not drawn),0.4,12.6%,-5.9,-0.8%,14.8%,0.3,10.0%
O=c1cc(-c2ccccc2Cl)oc2c(NS(=O)(=O)c3cccs3)ccc(O)c12,-4.1,?,1.5,1.4%,5.6%,-2.2,-11.3%
O=C(NCCCN1CCN(c2cccc(Cl)c2)CC1)c1nc(-c2ccncc2)no1,1.1,5.6%,17.8,1.6%,-12.2%,-7.0,-13.6%
Cc1ccc(-c2nnc(N3CCOCC3)c3ccccc23)cc1S(=O)(=O)N(C)C,2.0,-3.7%,-24.4,·,5.3%,-1.1,6.9%
O=C(CNC(=O)[C@@H]1Cc2ccccc2CN1)NC1CCCC1,·,-36.1%,-6.2,-1.6%,8.5%,4.2,11.9%
[O-]/[N+](=C\c1ccccc1)c1ccccc1,·,·,-2.7,0.2%,·,2.0,6.2%
CC(C)c1ccc(NC(=O)C(=O)C2C(=O)Nc3ccccc32)cc1 (stereo not drawn),-6.0,21.1%,-2.3,-0.8%,2.4%,12.6,-2.5%
CC(C)(C)NC(=O)c1ccccc1-c1nc(-c2ccccc2Cl)no1,1.7,6.2%,24.4,2.7%,4.4%,-2.6,-5.3%
COc1cc(S(=O)(=O)N(Cc2ccccn2)Cc2ccccc2Cl)ccc1-n1cnnn1,0.9,-7.4%,-5.3,-1.0%,-2.7%,-12.9,-20.0%
CCCOc1ccc(CC(=O)NNC(=S)Nc2ccccc2)cc1Br,-1.2,-15.4%,-12.7,-0.3%,8.8%,16.3,?
O=C(Cn1cnc([N+](=O)[O-])n1)N/N=C/c1ccc2ccccc2c1,1.3,-1.1%[15.4 µM],-15.3,·,-20.6%,-13.6,6.4%
COc1ccc(C2c3ccsc3CCN2C(=O)NC(C)(C)C)cc1 (stereo not drawn),-2.2,-0.4%,16.8,0.1%,-2.6%,-14.3,31.6µM*
COC(=O)Cn1c(=O)c2c(nc(Br)n2Cc2ccccc2Cl)n(C)c1=O,-0.3,-17.3%,-4.2,0.0%,10.4%,-1.3,-12.3%
C/C(CCc1oc2c(Br)cc(Br)cc2c1-c1ccc(C)o1)=N\O,5.9,-8.4%,13.2,-0.9%,22.4µM*,-9.6,-4.0%
O=C(NCCS(=O)(=O)N1CCN(c2cccc(Cl)c2)CC1)c1ccco1,·,-11.7%,0.0,3.6%,·,-6.8,4.3%
CCOC(=O)c1sc2ncn(CC(=O)N(CC)CC)c(=O)c2c1C,-0.6,-39.5%[inhibitor],-3.9,0.1%,-7.9%,-1.7,-7.1%
Cc1cc(OCC(=O)Nc2ccccn2)c2c(C)cc(=O)oc2c1,·,29.1%,-14.7,·,7.0%,3.1,3.6%
O=S(=O)(c1ccc(Cl)cc1)N1CCC(c2nc3ccccc3[nH]2)CC1,·,-0.5%[15.4 µM],-0.3,-3.1%,17.8%,3.0,1.3%
CCNC(=O)CNC(=O)c1nn(Cc2ccccc2)c(=O)c2ccccc12,·,11.8%,67.6,·,17.9%,2.5,-8.4%

# Sorted by value in Sfp inh (smallest number first): some entries from above.
SMILES	Sfp inh
CCOC(=O)c1sc2ncn(CC(=O)N(CC)CC)c(=O)c2c1C	-7.9%
Cc1cc(OCC(=O)Nc2ccccn2)c2c(C)cc(=O)oc2c1	7.0%
O=S(=O)(c1ccc(Cl)cc1)N1CCC(c2nc3ccccc3[nH]2)CC1	17.8%
CCNC(=O)CNC(=O)c1nn(Cc2ccccc2)c(=O)c2ccccc12	17.9%

# Compound activity as filed in PubChem.
